LT uptake inh: inhibitors of anthrax lethal toxin internalization; 70,000 tested, 0.67% active; Potency, µM (highest dose often 40 µM), without a hit: at the top dose activity change, negative = inhibition, actives largely listed as inhibitors; AID 912; Cells, anthrax lethal toxin internalization, FRET ratio (460/530); active = well fitted falling ratio curve with the 530 nm signal flat; inconclusive = other ratio curves, or a change in one channel alone; inactive = flat curves in the ratio and both channels; the % refers to the ratio; note: % is set by controls: 0 for no effect and ±100 for the full control effect; nearly all actives have a fitted effect of over 50% in size; tested in ME-180 cells; beta-lactamase reporter
Prx2 Sm inh: Schistosoma mansoni Prx2 inhibition; S. mansoni Prx2 activity coupled to TGR/GSH (TGR is thioredoxin glutathione reductase), NADPH fluorescence loss, qHTS; some inactives read as strong as hits; Potency, µM; 65,000 tested, 0.07% active; AID 448; active means full or partial inhibition curve with a strong effect at the top dose; inconclusive means weaker partial or single-point curve; inactive means no accepted curve; note: series up to 57 µM; many of its hits are not listed in these tables
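qHTS, coupled TGR/Prx2 format; 15 min compound preincubation at RT; reaction started with H2O2 (2.5 mM aliquot); kinetic NADPH fluorescence decrease, ex 365/em 450 nm.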
* marks the source's active call; other numbers are inactive results; u = inconclusive; x = not tested or not shown; & = joins results of further samples; [ ] = remark or other dose. Potency is the fitted concentration of half-maximal effect.

Results follow in this order: LT uptake inh, Prx2 Sm inh
- CN(C)C(=O)[C@@H]1C[C@H]1[C@@H](NC(=O)OCc1ccccc1)c1ccccc1
  -1%, x
- CN(C)S(=O)(=O)Nc1ccccc1C(N)=O
  -4%, >57
- Cc1ccc(Nc2nc(N)nc(CSc3nnnn3-c3ccccc3)n2)cc1
  5%, >57
- Cn1c(=O)c2c(nc(Sc3n[nH]c(N)n3)n2Cc2ccccc2Cl)n(C)c1=O
  -4%, >57
- O=C(O)[C@H]1O[C@H]1C(=O)O
  0%[8 µM], >57
- CC(C)(C)NC(=O)CC(CC(=O)O)c1ccccc1 (configuration not stated)
  -1%, >57
- C=CCSC1=C(C#N)C(c2ccccc2Cl)CC(=O)N1 (configuration not stated)
  -8%, >57
- O=C(NCc1csc(-c2ccccc2)n1)c1ccco1
  -5%, >57
- O=c1c(-c2cccs2)nc2cncnc2n1C1CC1
  u, >57
- COCCn1c(N)c(C(=O)Nc2sc3c(c2C(=O)OC)CCCC3)c2nc3ccccc3nc21
  -2%, >57
- Cc1noc(C)c1CSc1nnc(-c2ccncc2)n1-c1cccc(Cl)c1C
  -3%, >57
- Cc1cc(=O)n2nc(N3CCCC(C(=O)NCCC4=CCCCC4)C3)sc2n1 (configuration not stated)
  u, >57
- Cn1ncc(C#N)c1/N=C/N(Cc1ccccc1)Cc1ccccc1
  -15%, >57
- Cc1c(C(=O)O)oc2c1ccc1ccccc12
  13%, >57
- O=C(Nc1ccccc1)N1C(=O)C2(OCCO2)c2ccccc21
  u, >57
- O=C(Nc1nnc(C2CC2)s1)c1cccc(S(=O)(=O)N2CCc3ccccc32)c1
  1%, >57
- Brc1ccc(CSc2nnc(-c3ccccn3)n2Cc2ccco2)cc1
  u, >57
- CC(=O)C1=C(C)NC(=O)NC1c1ccccc1 (configuration not stated)
  11%, >57
- N#C/C(C(=O)c1ccccc1)=C1/CCCCCN1
  -5%, >57
- CCOC(=O)Cc1nnn(CC(=O)OCC)n1
  -2%, x
- CCCCOCCCNC(=O)C1CCCCC1
  -16%, x
- C/C=C/C=C/C(=O)O
  1%, x
- CC(=O)Oc1ccc(NC(=O)C2CCCCC2)c(C(=O)O)c1
  -11%, >57
- CN1CC[C@@]2(CCCN(C(=O)c3csnn3)C2)C1
  u, >57
- Cc1cc2c(c(=O)n1CC1CCCO1)C(c1ccco1)C(C#N)=C(N)O2 (configuration not stated)
  -11%, >57
- CCCC=O
  u, x
- CC(C(=O)N1CCc2ccccc21)N1CCc2ccccc2C1 (configuration not stated)
  -8%, >57
- CN(C)C(=O)Oc1ccc(-c2nnco2)cc1
  3%, >57
- N#Cc1cn(CC(=O)NCC2CCCO2)c2ccccc12 (configuration not stated)
  -2%, >57
- CN(C(=O)C1CCOC1)c1nnc(-c2ccncc2)s1 (configuration not stated)
  -5%, >57
- Cc1ccc(C(=O)CCNc2ccccc2)o1
  -8%, >57
- Cc1cc2cc(CNC(=O)c3cc4ccccc4o3)ccc2n1C
  -15%, >57
- COc1cc(C2N(c3ccc(Cl)c(Cl)c3)C(=O)C3CCCN32)cc(OC)c1OC (configuration not stated)
  0%, >57
- Cc1nn(-c2ccccc2)c(CC(C)(C)C(=O)O)c1C(=O)O
  x, >57
- COc1cc2c(C(=O)N3CCCc4ccccc43)cn(C)c(=O)c2cc1OC
  1%, x
- COc1ccc(S(=O)(=O)N(CC(=O)NCc2ccco2)C2CCCCC2)cc1OC
  -7%, >57
- OCCN1CCN(c2ncnc3c2sc2nc(N4CCOCC4)c4c(c23)CCC4)CC1
  10µM*, >57
- CCOC(=O)c1c(NC(=O)CCC(=O)NCc2ccco2)sc2c1CCCC2
  7%, >57
- CCN1CCN(Cc2ccc(C)cc2)CC1
  -16%, x
- Cn1c(SCC(=O)c2ccccc2)nnc1-c1cnccn1
  0%, >57
- Cc1nnc2ccc(N3CCN(c4cccc(C(F)(F)F)c4)CC3)nn12
  -19%, >57
- CN(C(=O)COc1ccc(C(C)(C)C)cc1)C1CCS(=O)(=O)C1 (configuration not stated)
  6%, >57
- Cc1cc(C)cc(N(CC(=O)NCC2CCCO2)S(=O)(=O)c2c(C)noc2C)c1 (configuration not stated)
  -4%, >57
- CCCCC(=NCCO)C1=C(O)C(C(=O)OC)C(C)(C)CC1=O (configuration not stated)
  20%, >57
- CC1(C)CC(=O)C2=C(C1)NC(=O)CC2c1ccccc1F (configuration not stated)
  u, >57
- Cc1ccc(CCN2CC(C(=O)NCCCN(C)Cc3ccccc3)CC2=O)cc1 (configuration not stated)
  -2%, >57
- CCN1C(=O)/C(=c2\o/c(=C3\C=Cc4ccccc4N3CC)c(=O)n2CC)SC1=S
  -1%, >57
- N#CCCN1CCN(C(=S)c2ccc(-c3ccc(Cl)cc3)o2)CC1
  19%, >57
- Nc1nnnn1/N=C/c1ccccc1OCc1ccccc1
  -14%, x
- COc1ccccc1C(=O)Nc1ccc2c(c1)nc(CN1CCN(C(C)=O)CC1)n2C
  22%, >57
- Cc1ccc(NC(=O)CS(=O)CC(=O)N(CC(=O)NC2CCCC2)c2cccc(C)c2C)cc1 (configuration not stated)
  -13%, >57
- O=C1C2C3C=CC(C3=C3CCCCC3)C2C(=O)N1Cc1ccccc1 (configuration not stated)
  u, >57
- COC(=O)[C@@]1(Cc2ccc(F)cc2)[C@H]2c3cc(C(=O)N(C)C)n(CCc4ccc(O)c(O)c4)c3C[C@H]2CN1C(=O)c1ccccc1
  u, >57
- CC12CN3CC(C)(CN(C1)C3c1cccs1)C2O (configuration not stated)
  -3%, >57
- CCN(CCCl)Cc1ccccc1Br
  -3%, >57
- Cc1ccsc1C(=O)Nc1nnc(-c2ccco2)o1
  11%, >57
- COc1ccc2[nH]c(=O)c(CN(C(=O)NC3CCCCC3)C3CCCCC3)cc2c1
  13%, >57
- CC1(C)N=C(N)N=C(N)N1c1cccc(OCc2cccc([N+](=O)[O-])c2)c1
  u, >57
- CC(C)[C@H](N)c1nnc(SCc2ccc(Cl)cc2)o1
  x, >57
- Cc1cccc(-c2nc(CN3CCCC(C(=O)NC4CCCCCC4)C3)c(C)o2)c1 (configuration not stated)
  0%, >57

Single records, from the list above. Order of values: LT uptake inh, Prx2 Sm inh
`COc1ccc2[nH]c(=O)c(CN(C(=O)NC3CCCCC3)C3CCCCC3)cc2c1` is entered as 13%, >57
`N#CCCN1CCN(C(=S)c2ccc(-c3ccc(Cl)cc3)o2)CC1` is entered as 19%, >57

Further compounds follow.
Results follow in this order: LT uptake inh, Prx2 Sm inh
- Cc1cc(SCC(=O)N2CCC(c3noc4ccc(F)cc34)CC2)nc2ccccc12
  -17%, >57
- C[C@@H]([C@H](O)c1ccc(O)cc1)N1CCC(Cc2ccccc2)CC1
  -12%, >26&>57&>57
- Cc1oc(-c2ccccc2F)nc1CN1CCC(C(=O)NC2CC2)CC1
  1%, >57
- CCOC(=O)c1ccc(NC(=O)CSc2nnnn2CCCO)cc1
  -8%, >57
- COc1ccccc1NC(=O)N(C1CCCC1)C1CCN(C(C)=O)CC1
  -4%, >57
- O=C(COC(=O)c1ccccc1Nc1ccccc1)NCc1ccco1
  13%, >57
- O=C(c1cccc(Cl)c1)N1CCN(c2ccccn2)CC1
  -13%, >57
- C=CCn1c(SCC(=O)NCCOC)nc2scc(-c3ccco3)c2c1=O
  14%, >57
- CCc1ccccc1NS(=O)(=O)c1ccc2[nH]cc(C(=O)NCc3ccco3)c(=O)c2c1
  8%, >57
- Cc1ccc(-c2csc(/C(C#N)=C(\O)CN3CCN(C(=O)c4ccco4)CC3)n2)cc1
  11%, >57
- CS(=O)(=O)Nc1cccc(-c2nc(NC3CC3)c3ccccc3n2)c1
  -8%, >57
- CC(C)(C)SCCNC(=O)COc1ccc(Cl)cc1
  -6%, >57
- O=C(C1Cc2ccccc2CN1S(=O)(=O)c1ccc(F)cc1)N1CCCCC1 (configuration not stated)
  u, >57
- CCOC(=O)c1sc(C(=O)OCC)c(OCCO)c1OCCO
  11%, >57
- COc1ccc(-c2nnc3ccc(SCC(=O)N4CCCCC4)nn23)cc1OC
  1%, >57
- CC(=O)c1ccc(C(=O)Nc2ccc(N3CCOCC3)cc2)cc1
  -2%, x
- CCOC(=O)c1c(NC(=O)CC)sc(C(C)=O)c1C
  -5%, >57
- Cc1nc(SCc2nc3ccccc3[nH]2)c2oc3ccccc3c2n1
  -12%, >57
- CCCN(CCC)C(=O)C1CCN(c2cc(C)nc3c(-c4ccc(OC)c(OC)c4)c(C)nn23)CC1
  -3%, >57
- Cc1cc(C(=O)N(C)Cc2ccc(Br)cc2)no1
  -11%, >57

Some of the entries so far, tab-delimited:
Molecule	LT uptake inh	Prx2 Sm inh
CCc1ccccc1NS(=O)(=O)c1ccc2[nH]cc(C(=O)NCc3ccco3)c(=O)c2c1	8%	>57
Cc1ccc(-c2csc(/C(C#N)=C(\O)CN3CCN(C(=O)c4ccco4)CC3)n2)cc1	11%	>57
CS(=O)(=O)Nc1cccc(-c2nc(NC3CC3)c3ccccc3n2)c1	-8%	>57

More results follow.
Results follow in this order: LT uptake inh, Prx2 Sm inh
- NC1(C(=O)O)CC1
  -9%, >57
- O=C(COc1cccc(NC(=O)c2ccco2)c1)c1ccc(F)cc1
  -18%, >57
- COCCCNc1oc(-c2ccccc2OC)nc1C#N
  u, >57
- COc1ccc(Cl)c(Cn2c(NCc3ccccn3)nc3c2c(=O)n(C)c(=O)n3C)c1
  6%, >57
- O=C(NCc1cccnc1)c1ccc(COc2ccccc2Br)o1
  -6%, >57
- NC(=O)CSc1nnnn1CC(CC(=O)O)c1ccccc1 (configuration not stated)
  u, >57
- NC(=O)N/N=C\c1ccc([N+](=O)[O-])o1
  -11%[3.58 µM], >57
- OCCSc1c(F)c(SCCO)c(SCCO)c(F)c1SCCO
  -13%, >57
- COC(=O)C1=C(C)[C@@H](O)[C@@H](C)[C@H](c2c(OC)c(OC)c(C)c(OC)c2OC)O1
  -3%[8 µM], x
- O=C(O)c1cccc(S(=O)(=O)N2Cc3ccccc3C2)c1
  -8%, >57
- O=C(Nc1ccc(Cn2nnc3ccccc32)cc1)c1ccco1
  u, >57
- O=C(O)C1C(c2ccccc2)C(C(=O)N2CCOCC2)C1c1ccccc1 (configuration not stated)
  -5%, >57
- CC1CC(C)CN(CCCNC(=O)C2CCCN(c3nnc(N4CCCC4=O)s3)C2)C1 (configuration not stated)
  9%, >57
- O=C1C(c2ccncc2)N(CCC2=CCCCC2)C(=O)CN1C1CCCCC1 (configuration not stated)
  u, >57
- Cc1cc(NC(=O)C2CC(c3ccc(F)cc3)=NO2)no1 (configuration not stated)
  -23%, >57
- CCOC(=O)N1CCC(NC(=O)CCc2nc(C3=CCN(C)CC3)no2)CC1
  -10%, >57
- Cc1noc(/C=C/N(C)C)c1S(=O)(=O)N1CCCC(C(=O)Nc2ccc3c(c2)OCO3)C1 (configuration not stated)
  -25%, >57
- CC(C)(C)NC(=O)C1CN(S(=O)(=O)c2ccccc2)CCN1S(=O)(=O)c1ccccc1 (configuration not stated)
  -12%, x
- O=S(=O)(c1ccc2c(c1)OCCO2)N1CCN(c2cccc(Cl)c2)CC1
  u, >57
- Cc1cc(C)c(S(=O)(=O)N2CCCCC2)c(C)c1-n1ncnn1
  -2%, >57
- O=C(O)C1CC1c1ccc(Br)cc1 (configuration not stated)
  14%, >57
- CCCSC1=C(C#N)C(c2ccccc2OCC)CC(=O)N1 (configuration not stated)
  -3%, >57
- O=c1c(-c2ccc(Cl)cc2)nc2cnc(N3CCOCC3)nc2n1Cc1ccc(F)cc1
  u, >57
- COc1cc(C2C(C(N)=O)=C(C)Nc3nc(CCCO)nn32)cc(OC)c1OC (configuration not stated)
  -5%, >57
- C=CC[C@@H]1C=C[C@H](O/N=C2\c3cc(OC)ccc3O[C@H](c3cccc(OC)c3)[C@H]2O)[C@H](CO)O1
  -1%[8 µM], x
- C=CCn1c(SC2CCOC2=O)nc2scc(C3CC3)c2c1=O (configuration not stated)
  15%, >57
- O=C(c1ccc(Cl)cc1)N1CCCOC1
  -2%, >57
- CCOC(=O)C1CCCN(c2ncnc3c2oc2ccccc23)C1 (configuration not stated)
  6%, >57
- c1nc(N2CCCCCC2)c2[nH]cnc2n1
  -7%, >57
- CC1CCN(C(=O)Cn2c(=O)n(CCc3ccccc3)c(=O)c3ccccc32)CC1
  6%, >57
- COc1ccc(N2CCN(C(=O)c3cccc(Cn4cc(Cl)cn4)c3)CC2)cc1
  -9%, >57
- COc1ccccc1CNS(=O)(=O)c1ccc(NC(C)=O)cc1
  -2%, >57
- COC(=O)c1nnn(CC(=O)Nc2cc(Cl)ccc2C)c1C(=O)OC
  -21%, >57
- CCCCOCCCNC(=O)c1c(-c2ccccc2)noc1C
  12%, >57
- O=C(c1ccco1)N1CCN(S(=O)(=O)c2ccc3c(c2)CCN3C(=O)C2CCC2)CC1
  u, >57
- Cc1cc(C)c(S(=O)(=O)N2CCN(C)CC2)c(C)c1
  11%, >57
- COCCN1C(=O)c2ccccc2C(C(=O)NCCCN2CCCC2)C1c1c[nH]c2ccccc12 (configuration not stated)
  -13%, >57
- Cc1cc(NCCN2CCOCC2)n2ncc(-c3ccccc3)c2n1
  -26%, >57
- CCn1nnnc1NCc1ccc(N2CCCC2)cc1
  9%, >57
- CCOC(=O)c1ccccc1NC(=O)CCNC(=O)Cn1cnc2ccccc2c1=O
  10%, >57
- CC(C)(C)C1=C[C@@H](CO)C[C@@H](CO)C1
  x, >57
- CCOC(=O)c1cc2n(n1)C(C(F)(F)F)CC(C)N2 (configuration not stated)
  -8%, >57

Not all compounds are listed; rates above refer to the full screens.
